Assay outcomes: PubChem, National Center for Advancing Translational Sciences (NCATS)
FLuc inh: Photinus pyralis luciferase inhibition. P08659. purified P. pyralis luciferase, luminescence, biochemical. Potency, µM (highest dose often 115 µM), without a hit: top-dose activity change, negative = inhibition, actives largely listed as inhibitors. 76,000 tested, 2.5% active; further: nearly all actives have a fitted effect of over 65% in size
Target sequence (P08659 whole entry, looked up): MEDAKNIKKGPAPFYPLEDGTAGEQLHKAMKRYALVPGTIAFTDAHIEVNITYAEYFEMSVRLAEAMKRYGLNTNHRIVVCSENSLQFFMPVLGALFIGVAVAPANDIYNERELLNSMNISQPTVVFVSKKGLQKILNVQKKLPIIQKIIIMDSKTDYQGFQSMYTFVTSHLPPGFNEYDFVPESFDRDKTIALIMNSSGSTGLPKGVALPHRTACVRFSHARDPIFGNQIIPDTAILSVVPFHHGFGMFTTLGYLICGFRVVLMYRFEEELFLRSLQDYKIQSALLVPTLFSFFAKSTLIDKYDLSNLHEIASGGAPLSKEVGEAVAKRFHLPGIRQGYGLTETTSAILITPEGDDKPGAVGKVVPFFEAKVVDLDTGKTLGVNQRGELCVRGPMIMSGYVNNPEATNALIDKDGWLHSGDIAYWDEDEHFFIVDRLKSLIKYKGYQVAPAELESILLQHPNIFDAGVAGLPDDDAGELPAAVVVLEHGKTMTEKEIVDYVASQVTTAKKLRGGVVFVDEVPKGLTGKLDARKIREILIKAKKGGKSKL
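Cell-free enzyme assay, 10nM P. pyralis luciferase, luciferin and ATP each at 10uM. Inhibition profiled over a 6-point titration, read as luminescence.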
HEK293 viab: cell viability loss counter-screen | 150,000 tested, 0.12% active | HEK-293-SNCA-luc viability, GF-AFC fluorescence, 24 h | AID 1671193 | Potency, µM (doses to about 57.1 µM), for inactives: at the highest dose activity change, negative = cytotoxicity, usual class: cytotoxic;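 further: 0% = DMSO-treated cells and -100% = medium-only wells without cells; nearly all actives have a fitted effect of over 30% in size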
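HEK-293-SNCA-luc cells (1500/well) plated 24 h, then exposed 24 h to a dilution series; GF-AFC added 30 min at 37C, fluorescence 405/540 nm; normalised to medium-only and DMSO wells, Hill fit.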
HEK cytotox: HEK 293 cell cytotoxicity | HEK 293 viability, ATP luminescence (CellTiter-Glo), 48-72 h | Potency, µM (highest dose often 115 µM), without a hit: at the top dose activity change, negative = cytotoxicity, usual class: inhibitors | 94,000 tested, 6.6% active; further: nearly all actives have a fitted effect of over 60% in size
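HEK 293 cells at 250 cells/well were exposed to compounds by pintool transfer for 48 or 72 hr at 37 degree Celsius, 5% CO2. Viability was read as ATP-coupled luminescence with CellTiter-Glo after 10 min at room temperature.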
SNCA expr inhib: SNCA gene expression inhibition; HEK-293 SNCA-luciferase knock-in, luminescence, 24 h; 140,000 tested, 0.17% active; Potency, µM (highest dose often 57.2 µM), inactives show at the top dose activity change, negative = inhibition, hits mostly inhibitors;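 further: plate controls were DMSO cells for no effect and cell-free wells for full effect; nearly all actives have a fitted effect of over 45% in size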
NIH3T3 tox: cytotoxic compounds in NIH 3T3 cells; NIH 3T3 viability, CellTiter-Glo ATP luminescence, 48-72 h; Potency, µM (series often up to 96.7 µM), without a hit: at the highest dose activity change, negative = cytotoxicity, most hits filed as inhibitors; 94,000 tested, 4.3% active; AID 1345082; further: nearly all actives have a fitted effect of over 55% in size
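Luminescent ATP readout (CellTiter-Glo, 10 min RT) after 48 or 72 hr compound exposure of NIH 3T3 cells seeded at 400 cells/well in 1536-well format; quantitative HTS.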
GPT2 inh: GPT2 alanine aminotransferase inhibition; Q8TD30; Recombinant GPT2, coupled pyruvate oxidase/HRP Amplex Red fluorescence; Potency, µM (top dose mostly 57.7 µM), inactives show at the highest dose activity change, negative = inhibition, most hits filed as inhibitors; 100,000 tested, 0.25% active; AID 1671188; further: nearly all actives have a fitted effect of over 60% in size; many of its hits are not listed in these tables
Target sequence (Q8TD30 whole entry, looked up): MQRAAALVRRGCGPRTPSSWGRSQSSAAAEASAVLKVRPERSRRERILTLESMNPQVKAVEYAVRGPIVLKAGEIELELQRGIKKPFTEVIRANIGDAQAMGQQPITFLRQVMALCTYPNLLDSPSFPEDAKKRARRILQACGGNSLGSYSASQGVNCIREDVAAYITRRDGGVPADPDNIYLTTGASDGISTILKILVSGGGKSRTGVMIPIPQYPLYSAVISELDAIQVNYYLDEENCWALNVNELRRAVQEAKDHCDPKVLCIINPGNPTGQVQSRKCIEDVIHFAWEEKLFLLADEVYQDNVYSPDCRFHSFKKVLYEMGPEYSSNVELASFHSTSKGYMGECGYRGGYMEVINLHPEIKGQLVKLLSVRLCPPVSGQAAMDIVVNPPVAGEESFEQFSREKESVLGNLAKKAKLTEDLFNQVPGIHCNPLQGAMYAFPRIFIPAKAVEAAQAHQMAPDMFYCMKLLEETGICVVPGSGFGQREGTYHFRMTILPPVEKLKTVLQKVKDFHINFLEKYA
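Recombinant GPT2 (10ng/uL) with 250uM a-KG and 2mM L-alanine, 30 min at room temperature, in HEPES pH 7.5 buffer. Pyruvate detected by pyruvate oxidase/HRP/Amplex Red fluorescence after 30 min in the dark; AOA (50uM) as positive control.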
Active calls of the source: *; i = inactive; ? = inconclusive; . = no result given; [ ] = another dose, or the depositor's remark. The call rests on the fitted dose curve; in most records, active means well fitted curve in the direction sought with a large enough effect; inconclusive means small, poorly fitted or top-dose-only effect, or another doubt; inactive means no such curve, though single readings can be large; an effect the other way counts as inactive or inconclusive. Unless noted, on the % scale 0 is the no-effect control and ±100 the full control effect; potency means the concentration at half of the fitted maximal effect. An excerpt (hit frequency here may not be typical).

Sequence of screens – FLuc inh	HEK293 viab	HEK cytotox	SNCA expr inhib	NIH3T3 tox	GPT2 inh
#1 CC(=O)N1c2ccc(S(=O)(=O)NCCc3cccc(C)c3)cc2CC1C (stereo unspecified)
→ .	2%	.	6%	.	.
#2 COCCNC(=O)CCSc1nc(-c2ccc(OC)cc2)cc(C(F)(F)F)n1
→ .	-13%	.	-1%	.	.
#3 COc1ccc(-n2c3c(c(=O)[nH]c2=O)C(NC(C)=O)(C(F)(F)F)C(=O)N3)cc1 (stereo unspecified)
→ .	3%	.	?	.	.
#4 O=C(NC(c1ccccc1)c1ccccc1)c1cnc2c(c1)N(Cc1ccccc1)CCC2
→ -1%[172 µM]	0%[87.6 µM]	?	9%[87.6 µM]	?	-1%[88.5 µM]
#5 CCn1ncc(C(=O)N2C[C@@H](COC)[C@H](c3nc(C)no3)C2)c1C
→ 3%	2%	i	13%	i	i
#6 COc1cccc2cc(-c3nc4ccc(C)cc4[nH]3)c(=O)oc12
→ .	1%	.	164%[activator]	.	.
#7 O=C(c1nc(-c2ccccc2)c2ccccn12)N1CCCC1
→ 1%[172 µM]	1%[87.6 µM]	?	-22%[87.6 µM]	-12%[138 µM]	i
#8 COc1cc(OC)c(NC(=O)C(C)n2nc(-c3ccc(C)c(C)c3)ccc2=O)cc1Cl (stereo unspecified)
→ .	-39%	.	-18%	.	.
#9 Cc1ccc(CCNC(=O)C2CC(=O)N(CCc3ccc(C)cc3)C2)cc1 (stereo unspecified)
→ .	6%	.	-6%	.	.
#10 FC(F)(F)c1cccc(-c2cc(-c3cccnc3)c3cncn3c2)c1
→ -14%[172 µM]	-21%[87.6 µM]	?	-14%[87.6 µM]	?	-5%[88.5 µM]
#11 CC(C)(C)NC(=O)CCSc1nc(-c2ccc3c(c2)OCO3)cc(C(F)(F)F)n1
→ .	-21%	.	-19%	.	.
#12 CCCCNC(=O)CCSc1nc(-c2ccc3c(c2)OCO3)cc(C(F)(F)F)n1
→ .	-1%	.	-18%	.	.
#13 CC(C)(C)NCC(O)c1ccc(O)c(CO)c1 (stereo unspecified)
→ .	-5%	.	13%	.	-46%
#14 CCNC(=O)CC1C(=O)N(c2ccc(C)cc2)C(=O)N1CCC(C)C (stereo unspecified)
→ .	0%	.	3%	.	.
#15 CN(C)C(=O)c1nc(-c2cccc(F)c2)c2cnccn12
→ -3%[172 µM]	4%[87.6 µM]	i	-13%[87.6 µM]	3%[138 µM]	i
#16 Cc1noc(C)c1[S+](=O)([O-])N1CCn2c(nnc2-c2ccccc2)C1
→ 6%	9%	-23%	?	-32%	4%
#17 COc1ccc(CCNc2nc(-c3ccccc3OC)cc(C(F)(F)F)n2)cc1OC
→ .	21%	.	-15%	.	.
#18 COC[C@@H]1CN(C(=O)Cn2cc(C)cn2)C[C@H]1c1nc(C2CC2)no1
→ 0%	4%	i	?	2%	1%
#19 CC(C)n1c(=N)c(C(=O)NC2CCCCC2)cc2c(=O)n3ccccc3nc21
→ .	28%	.	-2%	.	.
#20 CCCNC(=O)C(=O)NCC(c1ccc2c(c1)OCO2)N1CCOCC1 (stereo unspecified)
→ .	-1%	.	12%	.	.
#21 COc1ccccc1NC(=O)CSc1oc(-c2ccccc2)nc1S(=O)(=O)c1ccccc1
→ .	-19%	.	-26%	.	.
#22 COC(=O)c1ccccc1NC(=O)C1=CC(c2cccs2)=NS(=O)(=O)N1C
→ .	-8%	.	-5%	.	.
#23 Cc1nn(C)c2c1c(C(F)(F)F)cc(=O)n2C(C)C(=O)NCc1ccccc1Cl (stereo unspecified)
→ .	?	.	7%	.	.
#24 COCCC(=O)N1C[C@@H](COC)[C@H](c2nc(C)no2)C1
→ -11%	?	-16%	7%	-1%	i
#25 COc1cccc(-c2cnc3n[nH]c(-c4ccc5c(c4)OCO5)c3n2)c1
→ -25%[172 µM]	9%[87.6 µM]	?	?	50µM*	0%[88.5 µM]
#26 COc1ccccc1-c1cc(-c2ccc(=O)[nH]c2)c2cncn2c1
→ 16%[172 µM]	-6%[87.6 µM]	?	-7%[87.6 µM]	?	?
#27 COc1cccc(NC(=O)C(=O)NCC(c2ccc3c(c2)OCO3)N2CCOCC2)c1 (stereo unspecified)
→ .	13%	.	123%[activator]	.	.
#28 CC(=O)c1ccc(NC(=O)c2sc(-n3nc(C)c(CCC(C)C)c3C)nc2C)cc1
→ .	27%	.	35%[activator]	.	.
#29 CCNC(=O)CC1C(=O)N(c2ccccc2)C(=O)N1Cc1ccc(F)cc1 (stereo unspecified)
→ .	11%	.	?	.	.
#30 CCC(C)NC(=O)CCSc1nc(-c2ccc3c(c2)OCO3)cc(C(F)(F)F)n1 (stereo unspecified)
→ .	-3%	.	0%	.	.

Some of the entries so far, with bars between the fields.
item | molecule | FLuc inh | HEK293 viab | HEK cytotox | SNCA expr inhib | NIH3T3 tox | GPT2 inh
23 | Cc1nn(C)c2c1c(C(F)(F)F)cc(=O)n2C(C)C(=O)NCc1ccccc1Cl (stereo unspecified) | . | ? | . | 7% | . | .
24 | COCCC(=O)N1C[C@@H](COC)[C@H](c2nc(C)no2)C1 | -11% | ? | -16% | 7% | -1% | i
25 | COc1cccc(-c2cnc3n[nH]c(-c4ccc5c(c4)OCO5)c3n2)c1 | -25%[172 µM] | 9%[87.6 µM] | ? | ? | 50µM* | 0%[88.5 µM]
26 | COc1ccccc1-c1cc(-c2ccc(=O)[nH]c2)c2cncn2c1 | 16%[172 µM] | -6%[87.6 µM] | ? | -7%[87.6 µM] | ? | ?
27 | COc1cccc(NC(=O)C(=O)NCC(c2ccc3c(c2)OCO3)N2CCOCC2)c1 (stereo unspecified) | . | 13% | . | 123%[activator] | . | .
28 | CC(=O)c1ccc(NC(=O)c2sc(-n3nc(C)c(CCC(C)C)c3C)nc2C)cc1 | . | 27% | . | 35%[activator] | . | .

(listing goes on)
Sequence of screens – FLuc inh	HEK293 viab	HEK cytotox	SNCA expr inhib	NIH3T3 tox	GPT2 inh
#31 COc1ccccc1-c1cc(C(=O)NCCc2cnc[nH]2)c2c(c1)N(C)CCO2
→ ?	-11%[87.6 µM]	?	19%[87.6 µM]	?	i
#32 CCOCc1nc(C2CCCN(C(=O)Cc3ccc(F)cc3)C2)no1 (stereo unspecified)
→ -1%	1%[12.5 µM]	2%	-13%	-19%	-1%
#33 CCOCCCN(Cc1ccco1)S(=O)(=O)c1cc2c(cc1C)NC(=O)CO2
→ .	0%	.	-4%	.	.
#34 COc1cc(C2NC(=O)N(C)C3=C2C(=O)N(c2ccccc2)C3)ccc1O (stereo unspecified)
→ .	-25%	.	2%	.	.
#35 CC(C)Cn1c(=O)c2ccccc2n2c(CCC(=O)Nc3cccc(Cl)c3)nnc12
→ .	-1%	.	-12%	.	.
#36 O=C(NCc1ccc(F)cc1)c1nc(-c2ccc(Cl)nc2)c2cnccn12
→ .	1%	-1%	-23%	-8%	i
#37 COc1ccc(NC(=O)O[C@@H]2CO[C@H]3[C@@H]2OC[C@@H]3n2nnnc2SCc2ccco2)cc1
→ ?	1%	-4%	15%	-16%	i
#38 COc1cc(NC(=O)CC2C(=O)N(c3ccccc3)C(=O)N2Cc2ccc(F)cc2)cc(OC)c1 (stereo unspecified)
→ .	-3%	.	-3%	.	.
#39 O=C(CC1C(=O)N(c2ccc(F)cc2)C(=O)N1Cc1ccc2c(c1)OCO2)Nc1ccc(F)cc1 (stereo unspecified)
→ .	5%	.	-21%	.	.
#40 CCNc1ncc(C(=O)N[C@H](c2cnn(C)c2)C2CC(O)C2)cn1 (stereo partly specified)
→ -4%	-1%	i	1%	i	2%
#41 Cc1cc(C)cc(NC(=O)CSc2oc(-c3ccccc3)nc2S(=O)(=O)c2ccc(Cl)cc2)c1
→ .	0%	.	13%	.	.
#42 COc1ccccc1-c1[nH]nc2ncc(C(=O)NCC3CC3)nc12
→ 2%[172 µM]	-20%[87.6 µM]	?	-11%[87.6 µM]	?	i
#43 CCCCN(CCCC)CCCNC(=O)c1cc(-c2ccc(Cl)s2)nc2ccccc12
→ .	-1%	.	-6%	.	.
#44 COc1ccc(-c2cc(-c3cccc(O)c3)cn3cncc23)cc1
→ -25%[172 µM]	-13%[87.6 µM]	?	?	?	-12%[88.5 µM]
#45 CC(=O)NCCC(=O)N1CCC(n2c(=O)[nH]c3ccccc32)CC1
→ .	-2%[87.6 µM]	2%[172 µM]	-3%[87.6 µM]	-2%[138 µM]	i
#46 COc1ccc(C2NC(=O)N(C)C3=C2C(=O)N(c2ccc(Br)cc2)C3)cc1 (stereo unspecified)
→ .	?	.	-5%	.	.
#47 Cc1ccc(CNC(=O)C(=O)Nc2c3c(nn2-c2ccccc2)CSC3)cc1
→ .	-6%	.	13%	.	.
#48 c1ccc(-c2cnc3n[nH]c(-c4ccc5c(c4)OCO5)c3n2)cc1
→ -4%[172 µM]	1%[87.6 µM]	?	-24%[87.6 µM]	-15%[138 µM]	-2%[88.5 µM]
#49 COc1ccc(C2NC(=O)N(C)C3=C2C(=O)N(c2ccc(C(=O)O)cc2)C3)cc1 (stereo unspecified)
→ .	?	.	17%	.	.
#50 Fc1cccc(-c2cc(-c3cn[nH]c3)c3cncn3c2)c1
→ 3%[230 µM]	7%[87.6 µM]	?	?	?	0%[88.5 µM]
#51 COC(=O)CNC(=O)c1nc(-c2ccc(Cl)nc2)c2cnccn12
→ .	?	i	9%	?	i
#52 COc1ccc(-c2[nH]nc3ncc(-c4cn[nH]c4)nc23)cc1F
→ -13%[172 µM]	?	-65%[172 µM]	?	-67%[138 µM]	2%[88.5 µM]
#53 COc1cccc(C(=O)CN2CCN(S(=O)(=O)c3ccc(Cl)cc3)CC2)c1
→ .	3%	.	?	.	.
#54 O=C(c1ccc2c(c1)OCO2)N1CCC(n2c(=O)[nH]c3ccccc32)CC1
→ .	-1%	?	15%	-23%	-3%
#55 COc1cccc([S+](=O)([O-])N2CCC(C(=O)N3CCC(N4CCOC4=O)CC3)CC2)c1
→ .	0%	i	-1%	-9%	0%
#56 COc1ccc(Cn2ccc3nc(C)c(C(=O)Nc4ccc(OC)c(OC)c4)cc3c2=O)cc1
→ .	-8%	.	-7%	.	.
#57 Cc1ccc(CN2C[C@@H](NC(=O)c3cccnc3)C[C@H]2CO)s1
→ -1%	8%	?	7%	-20%	i
#58 Cc1cccc(-c2noc(-c3cccnc3NCc3ccco3)n2)c1
→ .	0%	.	64%[activator]	.	.
#59 CCC1CCCCN1C(=O)c1sc(-n2nc(C)c(Cc3ccccc3)c2C)nc1C (stereo unspecified)
→ .	8%	.	11%	.	.
#60 CC(=O)N1c2ccc(S(=O)(=O)NCC3CCC(C(=O)Nc4cccc(C)c4C)CC3)cc2CC1C (stereo unspecified)
→ .	13%	.	0%	.	.

Single values from the list:
Result for COc1cccc([S+](=O)([O-])N2CCC(C(=O)N3CCC(N4CCOC4=O)CC3)CC2)c1 under NIH3T3 tox: -9%
Result for Cc1ccc(CNC(=O)C(=O)Nc2c3c(nn2-c2ccccc2)CSC3)cc1 under HEK293 viab: -6%

Next entries follow:
Sequence of screens – FLuc inh	HEK293 viab	HEK cytotox	SNCA expr inhib	NIH3T3 tox	GPT2 inh
#61 COc1ccccc1CNS(=O)(=O)c1ccc2c(c1)CC(C)N2C(C)=O (stereo unspecified)
→ .	-3%	.	11%	.	.
#62 C[S+](=O)([O-])c1ccc(-c2nc(C(=O)NCc3ccc4c(c3)OCO4)n3ccccc23)cc1
→ -9%	0%	-13%	-12%	-29%	-21%
#63 O=C(c1ccc(F)cc1F)N1CCC(c2nc(-c3ccc(S(=O)(=O)N4CCCC4)cc3)no2)CC1
→ .	-2%	.	23%	.	.
#64 CCOC(=O)c1c(NC(=O)/C=C/c2ccc(OC)cc2)sc2c1CCC(C)C2 (stereo unspecified)
→ .	-11%	.	62%[activator]	.	.
